Sa helicase inh: blocks Staphylococcus aureus DNA helicase; purified S. aureus helicase, fluorescence unwinding assay; about half of the hits fall short of the stated cut; inhibition, %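 (tested at about 80 µM)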; 0.05% of 120,000 active; AID 485395;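 active means both duplicates at 50% or more, or one of them with a favoured structure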;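 further: 0% = mean of negative control wells and 100% = mean of positive control wells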
MgrA DNA FP: S. aureus MgrA-DNA binding modulation. 0.13% of 84,000 active. inhibition, %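 (about 10 µg/mL by stock and volumes)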. fluorescence polarization. AID 602314;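 active means above 50% in either of two replicates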;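 further: 0% = protein plus DNA without compound and 100% = DNA alone without protein; higher means less MgrA bound to DNA so lower polarization; one replicate is shown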
Starred values were filed as active, the others as inactive; . = no result given. A portion of the library; the hit share may differ from the screen's.

compound | Sa helicase inh | MgrA DNA FP
O=C(CN1CCCCCC1)Nc1nncs1 | 5 | -4.0
CC(C)CNC(=O)C(C)Oc1ccccc1 (stereo not drawn) | -3 | 1.6
Cc1c(CCC(=O)NCc2ccccc2)c(=O)oc2cc(O)ccc12 | 10 | 4.4
N#Cc1cnc2c(-c3ccccc3)c(COc3ccccc3)nn2c1N | 4 | -0.6
C=CCC(=O)c1sc(NC)c(C#N)c1N | 9 | -0.6
O=C(NCCNCC(O)COc1ccc(O)cc1)N1CCOCC1 (stereo not drawn) | . | -0.2
CCOc1ccc(NS(=O)(=O)c2cnc[nH]2)cc1 | -1 | .
O=C(O)CCc1ccc(-c2ccc(F)cc2)n1NC(=O)c1ccco1 | 2 | 0.7

More entries follow.
compound | Sa helicase inh | MgrA DNA FP
COc1ccc(C(=O)C(C)Sc2nnc(-c3cccc(C)c3)n2Cc2ccco2)c(OC)c1 (stereo not drawn) | -4 | .
COc1cc(C2=NNC(=O)CC2)cc(OC)c1OC | . | -2.7
CN(C(=O)C1CCCCN1S(=O)(=O)c1ccccc1)c1ccccc1 (stereo not drawn) | -10 | .
Cc1cc2c(c(=O)n1CCN1CCOCC1)C(c1cccc(F)c1)C(C#N)=C(N)O2 (stereo not drawn) | 15 | -2.0
CC(C)(C)C(=O)NCc1nc2ccccc2[nH]1 | -8 | .
N#CC(C#N)=Cc1ccc(-c2cccc(C(F)(F)F)c2)o1 | -13 | 4.2
CCOc1ccc(C(=O)Nc2cc(C)nn2-c2nc3ccccc3n2Cc2ccc(C#N)cc2)cc1 | -9 | .
CCN(C(=O)c1c(Oc2ccc(F)cc2)nc(C)c(Cl)c1C)c1ccccc1 | 11 | -0.7

Next records follow:
compound | Sa helicase inh | MgrA DNA FP
CC1C/C(=C/c2ccsc2)C(=O)/C(=C/c2ccsc2)C1 (stereo not drawn) | 32 | .
Cc1cc(C)nc(NS(=O)(=O)c2ccc(NC(=O)c3cc4ccccc4oc3=O)cc2)n1 | . | -0.7
COc1cc(/C=C2\SC(=S)NC2=O)ccc1OCc1cccc2ccccc12 | 6 | 0.6
Cc1csc(=O)n1CCC(=O)OCc1cc(=O)n2cc(Br)ccc2n1 | -1 | .
COc1ccccc1C1CCN(c2ncccc2[N+](=O)[O-])CC1 | . | -1.9
CCOc1ccccc1NC(=O)C(CC(C)C)NC(=O)C1CCCCC1 (stereo not drawn) | -2 | .
CN1C(=O)S/C(=C\c2ccc(I)cc2)C1=O | 9 | 2.2
CCCCc1nc2ccccc2c(N)c1CC (tested in a mixture with another compound) | 7 | 2.5

(listing goes on)
compound | Sa helicase inh | MgrA DNA FP
N#C/C(=C/c1cn(Cc2ccc(C(=O)O)o2)c2ccccc12)c1ccc(F)cc1 | 3 | 38
O=C(c1ccc(Br)s1)N1CCCC1 | 4 | -0.6
O=C(O)CSCc1cn2ccccc2n1 | -18 | -1.4
CCCOc1nnc(-c2ccc(C)c(S(=O)(=O)N(C)C)c2)c2ccccc12 | 5 | .
CN(C(=O)COC(=O)C1(c2ccccc2F)CCCC1)c1ccccc1 | 16 | 0.5
CC(=O)N1CCN2C(=O)C1CCCC(=O)c1cc(C3CCCCC3)ccc12 (stereo not drawn) | 0 | -1.0
COCCNc1c(-c2ccc(OC)c(OC)c2)nc2ccc(Cl)cn12 | 15 | 0.0
COc1ccc(C(=O)Oc2ccc(/C=c3/sc4nc5ccccc5n4c3=O)cc2)cc1 | . | 3.7

Next part:
compound | Sa helicase inh | MgrA DNA FP
CSc1ncc(C(=O)NC(C)C)c(-c2ccccc2)n1 | -19 | .
CC(=O)Nc1cc(C(C)C)c(C(C)C)cc1C(C)C | -3 | .
COc1cc(/C=C/C(=O)C(C)(C)O)cc(OC)c1OC | . | -0.6
O=C(/C=C/c1ccc(Cl)cc1)OCC(=O)N1CCCCC1 | 6 | -1.5
CC1Cc2ccccc2N1C(=O)c1cc2n(n1)C(C(F)(F)F)CC(c1ccco1)N2 (stereo not drawn) | -4 | 5.7
CC1(C)CC(=O)C=C(Nc2ccc(C(=O)O)cc2)C1 | -2 | -5.2
CCC(Sc1nc2ccncc2[nH]1)C(=O)Nc1ccccc1F (stereo not drawn) | -4 | .
N#CC1=C(SCC(=O)Nc2ccc(Br)cc2)NC(=O)CC1c1ccccc1 (stereo not drawn) | -13 | .

New compounds follow
compound | Sa helicase inh | MgrA DNA FP
CN(CCC(=O)Nc1ccc2c(c1)OCO2)Cc1ccccc1 | 1 | -2.3
OCc1nc2ccccc2n1CCOc1cccc(Cl)c1 | 3 | 1.5
CCOc1ccc(-n2ccnc2SCC(=O)NCCc2ccccc2)cc1 | 10 | .
COc1ccccc1CC(=O)NC1CCCC1 | 8 | -2.2
CCN1/C(=C2\C(=O)N(C)C(=S)N2c2ccccc2)C=Cc2ccccc21 | 5 | 2.1
c1ccc(Sc2nc3ccccc3nc2Sc2ccccc2)cc1 | . | -1.4
Cc1cc(C(=O)CSc2nc3ccccc3n2-c2ccccc2)c(C)n1-c1nccs1 | 0 | .
Cc1ccc(NC(=O)c2ccco2)cc1Cl | -19 | .

Additional results
compound | Sa helicase inh | MgrA DNA FP
c1ccc2[nH]c(NC3=NCCC3)nc2c1 | -6 | .
CS(=O)(=O)N1CCCc2cc(C(=O)N3CCOCC3)ccc21 | 32 | .
O=S(=O)(c1ccc(C(F)(F)F)cn1)c1cccs1 | . | 0.1
C=CCNC(=O)c1cc(-c2ccc(OC)cc2)on1 | 6 | 0.0
COc1ccc(C(=O)N2CCC2)cc1S(=O)(=O)NCc1ccc(Cl)cc1 | -4 | .
O=S1(=O)N=C(N/N=C/c2ccccc2F)c2ccccc21 | 34 | .
COC(=O)c1ccc(N(Cc2ccccc2)S(=O)(=O)c2ccccc2)cc1 | 4 | -3.5
CCOC(=O)c1c(Nc2cccc(Cl)c2Cl)n[nH]c1C | . | 1.9

(next part)
compound | Sa helicase inh | MgrA DNA FP
CCOC(=O)c1oc2ccccc2c1COC(=O)c1ccc(OCC)c(OC)c1 | -5 | .
Cc1ccc(-c2ccc(OC(F)F)cc2)cc1 | -10 | .
CCOC(=O)Cc1csc(NC(=O)CSc2ccccn2)n1 | . | 3.2
CCOC(=O)N1CCN(C(=O)CSC2=C(C#N)C(C)(C)C(C#N)C(=O)N2)CC1 (stereo not drawn) | -5 | .
CCc1cc(C(=O)Cc2ccc3ccccc3n2)c(O)cc1OC | 1 | .
CCN1CCN(CCC(=O)Nc2ccc(OC)cc2)CC1 | -1 | 1.6
CCn1c(NC(C)=O)nc2ccccc21 | 3 | 0.4
COc1ccc(S(=O)(=O)N2Cc3ccccc3CC2C(=O)N2CCCCC2)cc1 (stereo not drawn) | 9 | 0.1

The list continues.
compound | Sa helicase inh | MgrA DNA FP
COc1ccc2c(c1)c(NC(C)=O)c(C(=O)O)n2C | 21 | .
CC(NC(=O)c1ccccc1)c1nnc(SCc2nc3ccccc3c(=O)[nH]2)n1C (stereo not drawn) | 4 | 0.2
O=C(NCCc1ccc(Cl)cc1)C1CCC(=O)N1C1CCCCC1 (stereo not drawn) | 4 | .
CC1(C)Cc2c(sc3nc(SCC(=O)Nc4ccccc4)nc(N)c23)CO1 | -5 | .
O=C(CCCSC1=NC(c2ccco2)CC(C(F)(F)F)N1)Nc1ccc(Cl)c(Cl)c1 (stereo not drawn) | -2 | 2.0
Cn1c(N)c(C(=O)CN2CCc3ccccc3C2)c(=O)n(C)c1=O | -19 | .
CC(C)S(=O)(=O)/C(C#N)=C/Nc1ccc(Cl)cc1 | . | 0.0
CN1CCN(CCCNc2nc(-c3ccccc3)no2)CC1 | -3 | .

More entries.
compound | Sa helicase inh | MgrA DNA FP
CCN(C(=O)/C=C/c1cc(OC)c(OC)c(OC)c1)C1CCCCC1 | 5 | -1.3
Cc1cc(C(=O)OCC(=O)N2CCc3ccccc3C2)c(C)o1 | -18 | -0.9
Cc1nc2sc(C(=O)OCC(=O)NCc3ccco3)c(C)c2c(=O)[nH]1 | 12 | .
CCOc1ccc(CNc2nc3ccccc3n2C)cc1OC | 0 | .
CCc1ccc(-c2nc(SCC(=O)NC(C)(C#N)C(C)C)n[nH]2)cc1 (stereo not drawn) | -11 | .
Cc1csc2nc(CSc3nnc(C(C)Oc4ccccc4F)o3)cc(=O)n12 (stereo not drawn) | 7 | .
CC(C)(C)c1ccc(CSc2n[nH]c(=O)[nH]c2=O)cc1 | 9 | -2.0
Cc1cc(C)nc(SCC(=O)c2c(N)no[n+]2[O-])n1 | -1 | 4.5

(further entries)
compound | Sa helicase inh | MgrA DNA FP
COc1ccc2c(CC(=O)NC3CCCCCC3)coc2c1 | -5 | .
Cc1noc(COc2ccccc2OCC(N)=O)n1 | 3 | -3.0
CC(C#N)(NC(=O)CSc1nnc(-c2ccc(Br)cc2)n1C1CCCCC1)C1CC1 (stereo not drawn) | -3 | .
S=C(N/N=C\c1ccco1)Nc1ccccc1 | -2 | 7.9
COc1ccc(Nc2cc(C(=O)NCCCN3CCN(C)CC3)c3ccccc3n2)cc1 | -36 | .
CCOc1ccc2nc(SCC(=O)O)sc2c1 | -4 | .
c1ccc(COn2nnc3ccccc32)c(COn2nnc3ccccc32)c1 | . | 0.4
CN(C(=O)c1nc2ncccn2n1)c1ccc(OC(F)(F)F)cc1 | 14 | -0.1

(continued)
compound | Sa helicase inh | MgrA DNA FP
COc1ccc2c(CC(=O)OCc3cc(Cl)c4c(c3)OCO4)coc2c1 | -4 | .
CCOC(=O)C1CCN(C(=O)COC(=O)c2ccc(-n3cnnn3)cc2)CC1 | -1 | .
Cc1c(C)c(C)c(C(C)OC(C)c2c(C)c(C)c(C)c(C)c2C)c(C)c1C (stereo not drawn) | . | 4.2
O=C(NC1CCCCC1)C1c2ccccc2C(=O)N2CCc3ccccc3C12 (stereo not drawn) | 8 | -0.2
COc1ccc(-c2cn3c(c2C)-c2ccc(C)n2CC3)cc1 | -5 | -1.8
COc1ccc(/C=C2\SC(=O)N(CNc3cccc(C(F)(F)F)c3)C2=O)cc1 | . | 3.7
Cc1cc(NC(=O)CN2CCCCC2)no1 | -2 | 16
COc1cccc(C=C2C(=O)NC(=S)NC2=O)c1OC | . | 9.4

(cont.)
compound | Sa helicase inh | MgrA DNA FP
Cc1cc(N2CCOCC2)nc(SCC(=O)NCc2ccco2)n1 | 9 | .
Oc1ccc(Br)cc1-c1nc2ccccc2s1 | -2 | -0.4
CCCCNC(=O)NCCSCc1ccco1 | . | -0.6
O=C(NC1CC2CCC1C2)c1ccc(CN2CCOCC2)cc1 (stereo not drawn) | 9 | 4.7
CCCCN(Cc1ccco1)C(=O)c1noc2c1CCCC2 | 10 | .
N#C/C(=C\c1ccccc1Cl)S(=O)(=O)c1ccc(Cl)cc1 | . | -2.3
O=C(c1ccc(S(=O)(=O)N2CCOCC2)cc1)N(Cc1ccccn1)c1nc2ccccc2s1 | 1 | .
CN(CCC#N)C(=O)c1ccc2c(=O)n3c(nc2c1)CCCCC3 | -1 | .

Following part:
compound | Sa helicase inh | MgrA DNA FP
COc1ccc(NC(=O)Cc2cccc3ccccc23)cc1 | 1 | -2.2
OC1(C(F)(F)F)CC(c2ccc3c(c2)CCO3)=NN1 (stereo not drawn) | -14 | .
c1ccc(-n2c(SCC3CCCO3)nnc2-c2cccs2)cc1 (stereo not drawn) | -2 | .
S=C(NCCc1ccccc1)N1CCC(CCCC2CCN(C(=S)NCCc3ccccc3)CC2)CC1 | . | 1.6
Cc1c(C(N)=O)sc2ncn(Cc3ccccc3)c(=O)c12 | 2 | 1.5
O=C(Nc1ccccc1N1CCOCC1)c1cccs1 | . | -3.7
CC(C)N(C(=O)CSc1nnc(Cc2cccc3ccccc23)n1N)C(C)C | -4 | .
COc1cccc(NC(=O)c2cc(-c3cccc(OC)c3)n[nH]2)c1 | -20 | .

Six compounds picked at random from the list so far:
compound | Sa helicase inh | MgrA DNA FP
CC(C)N(C(=O)CSc1nnc(Cc2cccc3ccccc23)n1N)C(C)C | -4 | .
O=C(Nc1ccccc1N1CCOCC1)c1cccs1 | . | -3.7
COc1cccc(NC(=O)c2cc(-c3cccc(OC)c3)n[nH]2)c1 | -20 | .
c1ccc(-n2c(SCC3CCCO3)nnc2-c2cccs2)cc1 (stereo not drawn) | -2 | .
Cc1c(C(N)=O)sc2ncn(Cc3ccccc3)c(=O)c12 | 2 | 1.5
OC1(C(F)(F)F)CC(c2ccc3c(c2)CCO3)=NN1 (stereo not drawn) | -14 | .

The list goes on.
compound | Sa helicase inh | MgrA DNA FP
O=C(CNCCc1ccc(Cl)cc1Cl)NCc1ccco1 | -14 | .
O=S(=O)(Cc1ccccc1)NCc1ccccn1 | -28 | .
Cc1cc(C)n2nc(C(=O)OCC(=O)c3ccccc3)nc2n1 | 7 | .
Cn1c(CNC(=O)OC(C)(C)C)nnc1SCc1ccccc1 | -11 | .
O=C(c1ccc(Cl)cc1)N1CCCCC(Sc2nnnn2Cc2cccs2)C1=O (stereo not drawn) | -10 | .
CC(C)(C)OC(=O)N1CCC(c2nc(-c3ccc(Cl)s3)cs2)CC1 | . | -0.4
CN1CCC(N(C)C(=O)c2cc3c(s2)CCCC3)CC1 | -13 | 1.1
CCOC(=O)COc1ccc(=O)n(-c2ccccc2)n1 | -7 | 1.6

Next entries follow:
compound | Sa helicase inh | MgrA DNA FP
CCc1cc2c(=O)c(-c3nncn3-c3ccccc3)coc2cc1OCC(=O)O | 7 | .
Cc1ccc(C(=O)OCc2ccc(C#N)cc2)s1 | 2 | -0.7
O=C(COc1ncnc2sccc12)NCC1CCCO1 (stereo not drawn) | -12 | .
CC1=C(C)CC(C(=O)Nc2ccc(-n3cnnn3)c(C)c2)C(C(=O)O)C1 (stereo not drawn) | 5 | -0.9
O=C(c1ccc2c(c1)OCCCO2)c1ccc2ccccc2c1 | -15 | -0.1
CCOc1cc(/C=C2\N=C(c3cccc(F)c3)OC2=O)cc(Br)c1OC(C)=O | . | 2.4
Nc1nc(-c2ccc3c(c2)CCC3)cc(C(F)(F)F)n1 | . | -2.1
O=C(CSC1=NC(c2ccco2)CC(C(F)(F)F)N1)NCc1ccc(F)cc1 (stereo not drawn) | -1 | 3.8
Cc1ccc(N2C(=O)NC(=O)/C(=C\c3ccccc3)C2=O)cc1 | 9 | 11
CCC(c1nnc(SCC(=O)N2CC(=O)Nc3ccccc32)o1)N(C)C (stereo not drawn) | -5 | .

Bioassay records: PubChem BioAssay, ICCB-Longwood Screening Facility, Harvard Medical School
